A647 fluor: compound fluoresces in the A647 spectral region. max dye-equivalent concentration, M. AID 592. 59,000 tested, under 10 active. Compound fluorescence, A647 channel (570/671 nm), Tris buffer; active means above 1 µM dye equivalent; inconclusive means 0.1 to 1 µM; inactive means 0.1 µM or less;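 also: values scaled relative to a standard on each plate; highest value over a series up to 38 µM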
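Spectral profiling of library compounds in pH 8.0 Tris: 15 min room-temperature incubation, single ex/em pair (570/671 nm), response normalized to Alexa 647 equivalents.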
Resorufin fluor: compounds fluorescent in resorufin spectral region | Compound fluorescence, resorufin region 547/598 nm, buffer; active compounds read high | AID 588 | max dye-equivalent concentration, M | hit rate 0.04% among 59,000; active = above 10 nM dye equivalent; inconclusive = 1 to 10 nM; inactive = 1 nM or less; a few of its hits are not listed in these tables; also: highest value over a series up to 38 µM
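Intrinsic fluorescence profiled in the resorufin window (ex 547 nm, em 598 nm) after 15 min at room temperature in pH 8.0 Tris buffer (100 mM); responses normalized against a six-point resorufin standard series as dye-equivalent concentration.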
TSHR ag: activates the human thyroid stimulating hormone receptor; P16473; HEK293-CNG-TSHR cells (CNG channel as cAMP sensor), membrane potential dye, cAMP; Potency, µM (series often up to 57.1 µM), without a hit: at the highest dose activation, most hits filed as activators; hit rate 0.48% among 73,000; AID 926; active = well fitted activation curve of enough size with the parental cells flat; inconclusive = any curve in the parental cells; inactive = parental cells flat and receptor cells flat or falling; also: potency is read from the fitted curve at half-maximal effect; % of control where 0% means no effect; weak receptor curves with flat parental cells got no call and are not listed
Target sequence (P16473 whole entry, looked up): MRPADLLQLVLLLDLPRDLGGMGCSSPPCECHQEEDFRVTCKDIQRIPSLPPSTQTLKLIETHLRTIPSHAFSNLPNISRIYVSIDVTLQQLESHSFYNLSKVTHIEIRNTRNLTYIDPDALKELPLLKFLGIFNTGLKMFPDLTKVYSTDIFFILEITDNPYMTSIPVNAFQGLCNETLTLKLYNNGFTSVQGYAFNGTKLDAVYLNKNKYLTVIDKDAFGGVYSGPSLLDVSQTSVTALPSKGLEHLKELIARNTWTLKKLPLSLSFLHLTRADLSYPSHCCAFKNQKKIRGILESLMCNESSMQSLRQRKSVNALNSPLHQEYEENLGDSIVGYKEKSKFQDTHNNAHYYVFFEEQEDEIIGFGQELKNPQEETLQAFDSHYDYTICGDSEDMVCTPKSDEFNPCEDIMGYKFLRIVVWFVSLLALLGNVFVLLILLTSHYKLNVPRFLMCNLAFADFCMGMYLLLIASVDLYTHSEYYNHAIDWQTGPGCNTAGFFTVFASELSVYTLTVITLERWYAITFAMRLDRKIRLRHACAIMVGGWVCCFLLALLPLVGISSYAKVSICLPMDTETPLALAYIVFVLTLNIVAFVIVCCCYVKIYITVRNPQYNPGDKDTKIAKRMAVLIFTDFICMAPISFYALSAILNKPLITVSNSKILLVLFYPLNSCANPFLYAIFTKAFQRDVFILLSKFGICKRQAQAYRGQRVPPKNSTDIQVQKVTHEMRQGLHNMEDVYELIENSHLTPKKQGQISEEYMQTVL
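cAMP rise detected as CNG-channel membrane depolarization by fluorescent dye (emission 590 nm), 30 min after compound, following 60 min dye loading containing 100 uM RO 20-1724 at room temperature. Cells: TSHR/CNG HEK 293, with parental CNG HEK 293 as control.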
A488 autofl: compound fluoresces in the A488 spectral region; compound autofluorescence, A488 spectral region, dye equivalency; active compounds read high; max dye equivalency, M; hit rate 0.1% among 59,000; active = above 10 nM dye equivalent; inconclusive = 1 to 10 nM; inactive = 1 nM or less; about half of its hits are not listed in these tables;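 also: highest value over a series up to 38 µM; compound alone in buffer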
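Compound autofluorescence was read in 100 mM Tris pH 8.0 after 15 min at room temperature, ex 480 nm/em 540 nm. Intensities were converted to A488 dye-equivalent concentration using an on-plate six-point A488 standard curve.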
AID923: qHTS Assay for Allosteric/Competitive Inhibitors of Caspase-1: Spectroscopic Profiling in AFC Spectral Region. AID 923, 2007. compound fluorescence, AFC spectral region (405/520 nm); almost no hit is shown here. hit rate 1.1% among 75,000. Potency, µM (doses to about 57.5 µM), without a hit: at the top dose fluorescence increase, usual class: activators; active = well fitted activation curve with a large enough effect; inconclusive = small, poorly fitted or top-dose-only effect;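 also: potency is read from the fitted curve at half-maximal effect; 0% is about no effect; scaled to a free AFC standard on each plate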
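Titrations up to 57 uM read every 20 sec for 3 min (405/520 nm) with 50 nM caspase 1 and 5 uM Ac-WEHD-AFC, pH 7.5 HEPES buffer. Fluorescence-vs-time intercept gave baseline, scaled against on-plate AFC standard.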
Numbers without * were called inactive; i = inactive; ? = inconclusive; nt = no result given; [ ] = dose if it differs, or a comment. Some of the compounds tested (hit frequency here may not be typical).

The line under a structure holds: A647 fluor | Resorufin fluor | TSHR ag | AID923 | A488 autofl
CCOC(=O)c1c(N)sn(-c2ccccc2C)c1=S
  5.3e-09 | i | -2.8% | 0.9% | i
O=S(=O)(c1cccs1)N1CCN(c2ccccn2)CC1
  5.8e-09 | i | 5.5% | -1.8% | i
Cc1cc(N2CCOCC2)nc2ccc(NC(=O)CCC(=O)N3CCC(C)CC3)cc12
  1e-09 | i | 5.1% | 1.7% | i
Cc1ccc(S(=O)(=O)NC(C)(C)CSc2nnc(N)s2)cc1
  1.9e-09 | i | 12.8% | 0.4% | i
Cn1c(-c2cccc(Br)c2)cnc1NCc1cccnc1
  1e-09 | i | 8.0% | -0.5% | i
O=C(Nc1cccc(F)c1)c1ccc(S(=O)(=O)N2CCCC2)cc1
  nt | nt | -0.2% | 1.0% | nt
CCOC(=O)CS(=O)(=O)c1nc(-c2ccc(F)cc2)cc(C(F)(F)F)n1
  1.3e-09 | i | 15.0% | -1.9% | i
NC(=O)C1CCN(C(=O)CN(c2cccc(C(F)(F)F)c2)S(=O)(=O)c2ccccc2)CC1
  nt | nt | 5.4% | 0.5% | nt
Clc1cccc2sc(N3CCN(c4ccccc4)CC3)nc12
  2.71e-08 | i | 14.8% | 0.3% | i
CS(=O)(=O)c1cccc(C(=O)NCc2ccccc2)c1
  1.55e-08 | i | 0.0% | 0.4% | i
COc1cc(NC(=O)c2noc3c2CCC3)c(OC)cc1Cl
  1.31e-08 | i | ? | -0.9% | i
O=c1[nH]c(CSc2nnc(COc3ccccc3)n2-c2ccccc2)nc2ccccc12
  1.11e-08 | i | 33.8% | -0.2% | i
Cc1cccc(-n2c(SCc3cc(=O)n4ccsc4n3)nc3ccccc32)c1
  1e-09 | i | ? | -0.8% | i
Cc1c(C(=O)NCC2COc3ccccc3O2)oc2ccc(S(=O)(=O)N3CCOCC3)cc12 (centres undefined)
  2.12e-08 | i | 11.4%[11.4 µM] | -2.7% | i
Cc1nc2cc(-c3cccc(F)c3)nn2c(C)c1CCC(=O)NC(C)CCc1ccco1 (centres undefined)
  nt | nt | 4.2% | 0.1% | nt
O=C(Nc1ccon1)c1ccc(Cl)s1
  1e-09 | i | -6.2% | -1.0% | i
CCCc1cc(C(=O)OC)c(NC(=O)OCC)s1
  1.41e-08 | i | 8.7% | 1.5% | i
O=C(Nc1cccnc1)c1c(F)c(F)c(F)c(F)c1F
  6.7e-09 | i | 1.4% | 1.0% | i
COc1cc(C2C(C#N)=C(N)Oc3cc(N(C)C)ccc32)cc2c1OCO2 (centres undefined)
  4.49e-08 | i | 9.6%[11.4 µM] | 11.8% | i
COc1ccc(CN(Cc2ccccn2)S(=O)(=O)c2ccc(-n3cnnn3)cc2)cc1
  2.53e-08 | i | 3.3% | 1.5% | i
Cc1cc(C)cc(NC2=NC3(CCCCC3)N=C(N)N2)c1
  nt | nt | 16.2% | 2.0% | nt
Cc1ccc(S(=O)(=O)N2CCC(C(=O)N3CCN(Cc4ccccc4)CC3)CC2)cc1
  nt | nt | ? | 0.3% | nt
COC(=O)c1ccccc1S(=O)(=O)Nc1ccc(OC)nc1
  7.2e-09 | i | 4.2% | 0.0% | i
Cc1[nH]c2ccccc2c1C(=O)CN1CCSCC1
  2.8e-08 | i | 7.4% | -0.3% | i
COCCNS(=O)(=O)c1cc(OC)c(Cl)cc1Cl
  4.9e-09 | i | -9.8% | 0.3% | i
CCOC(=O)C1=C(C)NC(C)=C(C(=O)OCC)C1c1ccccn1
  1e-09 | i | -0.6% | 13.4% | i
O=C(NC12CC3CC(CC(C3)C1)C2)c1ccc(S(=O)(=O)N2CCOCC2)cc1
  nt | nt | -2.5% | -3.4% | nt
CCOC(=O)COn1c(=O)c(=O)n(O)c2ccccc21
  nt | nt | -6.6%[11.4 µM] | -0.3% | nt
N=c1sccn1CC(=O)Nc1cccc(Oc2ccccc2)c1
  2.49e-08 | i | 4.0% | -0.8% | i
CCc1cc(C(=O)c2ccccc2OC)c(N)s1
  2.48e-08 | i | 0.0%[11.4 µM] | -1.0% | i
CCOC(=O)C1Cn2c(nc3c(c2=O)C(C)(CC)Cc2ccccc2-3)S1 (centres undefined)
  nt | nt | 20.0% | 3.5% | nt
O=C(OCC(=O)c1cccs1)c1ccccc1
  nt | nt | -6.9% | 2.7% | nt
CC1=C(C(=O)OCc2ccccc2)C(C2CC2)NC(=O)N1CCCCCC(=O)O (centres undefined)
  nt | nt | ? | 0.0% | nt
CCOC(=O)N1CCN(C(=O)CN(c2ccc(Oc3ccccc3)cc2)S(C)(=O)=O)CC1
  nt | nt | ? | 2.2% | nt
COc1ccc(CCNC(=O)CSc2nnc(CNc3ccc(Cl)cc3)o2)cc1OC
  1e-09 | i | ? | 2.0% | i
CC1(C)Oc2ccc(NC(=O)C3COc4ccccc4O3)cc2O1 (centres undefined)
  1e-09 | i | 10.8% | -1.5% | i
O=C(C1CCCO1)N1CCN(C(c2ccccc2)c2ccccc2)CC1 (centres undefined)
  nt | nt | -18.1% | 0.0% | nt
O=C1c2ccc(Oc3ccc4c(c3)C(=O)N(CCCO)C4=O)cc2C(=O)N1CCCO
  nt | nt | 9.1% | 0.0% | nt
O=[N+]([O-])c1cc(Cl)c(Cl)c(Cl)c1Cl
  nt | nt | -10.6% | 1.4% | nt
COc1ccc(Cl)cc1N1C(=O)C2CCCN2C1c1ccc(F)c(F)c1 (centres undefined)
  nt | nt | 24.6% | 1.7% | nt
O=C(NCC1COc2ccccc2O1)c1ccc(NC(=O)c2ccco2)cc1 (centres undefined)
  1.7e-09 | i | -1.8% | -0.5% | i
Cc1cc2oc(=O)cc(COC(=O)Cn3cnnn3)c2cc1C(C)C
  1.38e-08 | i | 5.5% | 0.0% | i
CCS(=O)(=O)N1CCN(C2CCC(c3ccccc3)CC2)CC1 (centres undefined)
  1e-09 | i | 9.9% | -0.1% | i
COc1cc(C)c(-c2cc(C(=O)O)c(C)o2)cc1C(C)C
  3.2e-08 | i | nt | -0.3% | i
O=C(CSCc1ccco1)Nc1cc(C(F)(F)F)ccc1N1CCOCC1
  1e-09 | i | 20.3% | -1.5% | i
Cc1cccc(-n2c(Cc3cc(=O)[nH]c(=O)[nH]3)nnc2SC(C)C)c1
  nt | nt | -5.1% | 1.2% | nt
CCOC(=O)c1csc(Nc2nc3ccc(F)cc3s2)n1
  3.26e-08 | i | -3.8% | 1.0% | i
CN1C(=O)OC2(C)CCc3ccccc3C12C (centres undefined)
  1.11e-08 | i | 5.1%[11.4 µM] | -0.3% | i
Cc1ccccc1OCC(=O)N(Cc1nc(-c2ccccc2)no1)C(C)C
  1.21e-08 | i | ? | -2.1% | i
COCCNC(=O)c1ccc(CS(=O)(=O)c2ccc(OC)cc2)o1
  nt | nt | -4.2% | 2.9% | nt
O=C1NCN(c2ccccc2)C12CCN(c1nnnn1-c1ccccc1)CC2
  1.8e-09 | i | 7.9% | -0.5% | i
COC(=O)c1ccccc1NC(=O)c1c(O)c2c([nH]c1=O)CCCC2
  7.9e-09 | i | -4.0% | -2.2% | i
CC1(C)O[C@@H]2C[C@H]3[C@@H]4C[C@H](F)C5=CC(=O)CC[C@]5(C)[C@H]4[C@@H](O)C[C@]3(C)[C@]2(C(=O)CO)O1
  1e-09 | i | nt | nt | i
Cc1cc2sc(C)[n+](CCCOS(=O)(=O)O)c2cc1C
  1e-09 | i | -0.4%[11.4 µM] | 1.8%[11.5 µM] | i
CCOC(=O)c1nnn(-c2nonc2N)c1CN(C)Cc1ccccc1
  1.9e-08 | i | 9.7% | -1.6% | i
O=C(Nc1ccc(N2CCOCC2)c(Cl)c1)c1ccc(Br)o1
  2.21e-08 | i | 21.4% | 2.1% | i
O=C1CC(c2ccccc2)n2nc(N3C(=O)c4ccccc4C3=O)nc2N1 (centres undefined)
  4.59e-08 | i | nt | nt | i
CN(CC(=O)NC1CCCCCC1)S(=O)(=O)c1ccccc1
  1e-09 | i | 13.8% | 2.0% | i
COCCCN1C(=O)C(=O)/C(=C(/O)c2ccc(OC(C)C)cc2)C1c1ccc(O)c(OC)c1 (centres undefined)
  3.27e-08 | i | 3.6% | 0.3% | i
CCCc1nc2sc3ccccc3c(=O)c2c(=O)n1Cc1ccco1
  1e-09 | i | ? | 0.3% | i

The list goes on:
The line under a structure holds: A647 fluor | Resorufin fluor | TSHR ag | AID923 | A488 autofl
COc1ccc(CNc2nc(-c3ccc(N(C)C)cc3)nc3ccccc23)c(OC)c1
  1e-09 | i | -20.0% | 6.1% | i
CC(=O)c1ccc(S(=O)(=O)NCCCC(=O)NCCc2ccccn2)cc1
  1e-09 | i | 5.7%[11.4 µM] | -1.0% | i
CCCCCCOc1cccc(N)c1
  1.1e-09 | i | ? | 2.2% | i
CC(C)N(CC(=O)O)CC(=O)O
  3.2e-09 | i | -1.8%[11.4 µM] | 3.4%[11.5 µM] | i
CCOc1ccccc1N1CCN(Cc2cccc(OC)c2OC)CC1
  nt | nt | 25.8% | 2.9% | nt
CCCN(CCC)c1ncnc2nc[nH]c12
  nt | nt | -15.9% | -3.0% | nt
CCOC(=O)Cc1nn(CCc2ccccn2)c(=O)c2ccccc12
  1.73e-08 | i | 0.4%[11.4 µM] | -1.6% | i
Cc1ccc(S(=O)(=O)NC(=O)OC23COCN2COC3)cc1
  3.55e-08 | i | 19.4%[11.4 µM] | 1.1%[11.5 µM] | i
C1CNCCNCCNCCN1
  1e-09 | i | nt | nt | i
COc1cc(-c2cc(C(=O)N3CCN(c4ccccn4)CC3)c3ccccc3n2)cc(OC)c1OC
  4.34e-08 | i | 15.4%[11.4 µM] | 0.3% | i
CCOC(=O)c1cc2sccc2n1CC(=O)N1CCCC1
  1e-09 | i | ? | -1.5% | i
N#Cc1nc(COc2ccc(F)cc2)oc1NCCCn1ccnc1
  1e-09 | i | nt | 0.2% | i
Cc1ccc(NC2=NCC(=O)N2Cc2ccc3c(c2)OCO3)cc1
  1e-09 | i | -0.4% | -0.5% | i
CC(=O)Nc1ccc(S(=O)(=O)N2CCN(c3nc(NC4CCCC4)c4ccccc4n3)CC2)cc1
  nt | nt | ? | 2.0% | nt
NC(=O)NCC12CC3CC(CC(C3)C1)C2
  7.4e-09 | i | ? | -1.4% | i
N=C1C=CC(=C(c2ccc(N)cc2)c2ccc(N)cc2)C=C1
  5.01e-08 | i | ? | 3.3%[11.5 µM] | i
COC(=O)c1sc(S(=O)(=O)N2CCCCC2)c(C(=O)OC)c1C
  4e-09 | i | ? | 0.5% | i
c1ccc(-n2c(SCC3CCCCO3)nnc2-c2cccs2)cc1 (centres undefined)
  3.1e-08 | i | ? | -2.2% | i
COC(=O)N1CCC[C@@]2(CCN(c3ccccn3)C2)C1
  1.04e-08 | i | ? | 10.5% | i
Cc1cc(-c2ccccc2)nn1-c1nc2c(c(=O)[nH]c(=O)n2C)n1C
  1e-09 | i | nt | 1.0% | i
O=C(NCCCN1CCOCC1)c1ccc(CS(=O)(=O)c2ccc(Br)cc2)o1
  nt | nt | 1.8% | 2.9% | nt
CCn1c(SCC(=O)Nc2nc3ccc(OC)cc3s2)nnc1-c1ccoc1C
  4.7e-09 | i | 5.8% | 0.4% | i
IC(I)I
  nt | nt | -9.0% | 0.5% | nt
COc1ccccc1-c1cc(C(=O)Nc2c(C)n(C)n(-c3ccccc3)c2=O)no1
  1e-09 | i | 7.3%[11.4 µM] | -0.7% | i
CCCc1cc(C(=O)Nc2cccc(Cl)c2)no1
  nt | nt | 18.0% | -1.2% | nt
COc1ccc(NC(=O)CSc2nnc(Cc3cccn3C)n2CCc2ccccc2)cc1OC
  1e-09 | i | -0.8% | -0.3% | i
COc1ccc(N(C)S(=O)(=O)c2ccc3c(c2)oc(=O)n3C)cc1
  4.58e-08 | i | 2.1% | 2.2% | i
